Vaccinia stage: blocks a specific stage of Vaccinia orthopoxvirus infection, primary screen, cell-based, single point | AID 1053133, 2014 | actives 0.01% (n = 89,000) | activity change (mCherry), % (test concentration not listed) | Vaccinia-infected cells, mCherry/Venus stage reporter fluorescence; hits give low values; some inactives read as strong as hits;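 active means mCherry past -33% and 40 or more points under the early reporter, replicates agreeing; inconclusive means past -33% without that gap or agreement; tested in A549 cells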;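 further: scaled between vehicle wells and reference inhibitor wells; 23 nL library stock went into each well; one replicate is shown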
Vaccinia stage Venus: further read-out of Vaccinia stage, marked with its call; activity change (Venus), %; measured here: Venus reporter, other viral stage;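 negative = less Venus signal; first of two replicates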
Active calls of the source: *; & = joins results of further samples. An excerpt. The share of hits here may be higher or lower than overall.

What do the screens show for `C[C@@H]1CN([C@@H](C)CO)C(=O)c2cc(NC(=O)Nc3ccccc3)ccc2O[C@@H](C)CCCCO[C@@H]1CN(C)C`?
Vaccinia stage: 3; Vaccinia stage Venus: 5

How did COCC(=O)N(C)C[C@@H]1Oc2cc(C#CC3CC3)ccc2S(=O)(=O)N([C@@H](C)CO)C[C@H]1C do in these assays?
Vaccinia stage: 3; Vaccinia stage Venus: -6

What do the screens show for `CCCNC(=O)C[C@@H]1CC[C@H]2[C@@H](COC[C@H](O)CN2C(=O)C2CCOCC2)O1`?
Vaccinia stage: 15; Vaccinia stage Venus: 21

How did CCCC(=O)Nc1ccc2c(c1)C(=O)N(C)C[C@@H](OC)[C@H](C)CN(C(C)=O)[C@@H](C)CO2 do in these assays?
Vaccinia stage: 10; Vaccinia stage Venus: 0

How did C[C@@H]1CN([C@H](C)CO)C(=O)Cc2cc(NC(=O)CCC(F)(F)F)ccc2O[C@H]1CN(C)S(C)(=O)=O do in these assays?
Vaccinia stage: 2; Vaccinia stage Venus: 1

How did CN(C)C(=O)c1cccc(-c2ccc([C@H]3[C@H](CO)N4CCCCN(CCC(F)(F)F)C[C@@H]34)cc2)c1 do in these assays?
Vaccinia stage: 18; Vaccinia stage Venus: 5

What do the screens show for `CC(C)CC#Cc1cnc2c(c1)C(=O)N([C@H](C)CO)C[C@H](C)[C@H](CN(C)Cc1ccccc1F)O2`?
Vaccinia stage: 5; Vaccinia stage Venus: -10

Results for C[C@H]1CN([C@@H](C)CO)C(=O)c2cccc(NC(=O)Nc3ccc(F)cc3)c2O[C@@H]1CN(C)C(=O)Nc1ccc2c(c1)OCO2 ?
Vaccinia stage: 12; Vaccinia stage Venus: 10

What do the screens show for `C/C=C/c1cnc2c(c1)C(=O)N([C@H](C)CO)C[C@H](C)[C@@H](CN(C)Cc1cccc(C(=O)O)c1)O2`?
Vaccinia stage: 28; Vaccinia stage Venus: 9

Results for O=C(C[C@H]1CC[C@@H](NS(=O)(=O)c2ccc(F)cc2)[C@@H](CO)O1)N1CCC(Cc2ccccc2)CC1 ?
Vaccinia stage: 6; Vaccinia stage Venus: 17

What do the screens show for `COCC(=O)Nc1ccc2c(c1)C(=O)N(C)C[C@@H](OC)[C@@H](C)CN(Cc1cccc(F)c1)[C@@H](C)CO2`?
Vaccinia stage: -7; Vaccinia stage Venus: -5

Results for C[C@H]1CN([C@@H](C)CO)C(=O)c2cc(NC(=O)C3CCCCC3)ccc2O[C@@H]1CN(C)Cc1ccc(C(F)(F)F)cc1 ?
Vaccinia stage: inconclusive

How did COc1ccc(-c2cnc3c(c2)C(=O)N([C@H](C)CO)C[C@H](C)[C@H](CN(C)S(=O)(=O)c2ccc(C)cc2)O3)cc1 do in these assays?
Vaccinia stage: -11; Vaccinia stage Venus: -25

How did C[C@@H]1CN([C@@H](C)CO)C(=O)CCCn2nncc2CO[C@H]1CN(C)Cc1cccc(C(F)(F)F)c1 do in these assays?
Vaccinia stage: 9&3; Vaccinia stage Venus: -9&0

What do the screens show for `C[C@@H]1CN([C@H](C)CO)C(=O)c2cccc(NC(=O)C3CCOCC3)c2O[C@H]1CN(C)C(=O)Nc1cccc2ccccc12`?
Vaccinia stage: 8; Vaccinia stage Venus: 3

What do the screens show for `CCCNC(=O)C[C@@H]1CC[C@H]2[C@H](COc3ccc(NC(=O)c4ccc(Cl)cc4)cc3C(=O)N2C)O1`?
Vaccinia stage: inconclusive

What do the screens show for `C[C@@H]1CN([C@H](C)CO)C(=O)c2cc(NC(=O)CCCN(C)C)ccc2O[C@@H]1CN(C)C(=O)Nc1ccc2c(c1)OCO2`?
Vaccinia stage: 16; Vaccinia stage Venus: 10

Results for O=C(N[C@@H]1CC[C@H](CCNS(=O)(=O)Cc2ccccc2)O[C@@H]1CO)c1ccccc1F ?
Vaccinia stage: 6; Vaccinia stage Venus: 12

What do the screens show for `C[C@H](CO)N1C[C@H](C)[C@H](CN(C)C(=O)Nc2ccc3c(c2)OCO3)Oc2ccc(NC(=O)CCCN(C)C)cc2C1=O`?
Vaccinia stage: 22; Vaccinia stage Venus: 7

What do the screens show for `C[C@@H]1CN([C@@H](C)CO)C(=O)c2cc(NS(=O)(=O)c3cn(C)cn3)ccc2O[C@H]1CN(C)Cc1ccc(-c2ccccc2)cc1`?
Vaccinia stage: 9; Vaccinia stage Venus: 9

Next section, overlapping the part above by 2 compounds.
What do the screens show for `C[C@H](CO)N1C[C@H](C)[C@H](CN(C)C(=O)Nc2ccc3c(c2)OCO3)Oc2ccc(NC(=O)CCCN(C)C)cc2C1=O`?
Vaccinia stage: 22; Vaccinia stage Venus: 7

What do the screens show for `C[C@@H]1CN([C@@H](C)CO)C(=O)c2cc(NS(=O)(=O)c3cn(C)cn3)ccc2O[C@H]1CN(C)Cc1ccc(-c2ccccc2)cc1`?
Vaccinia stage: 9; Vaccinia stage Venus: 9

Results for O=C(C[C@H]1CC[C@@H]2[C@H](COC[C@@H](O)CN2C(=O)c2cnccn2)O1)NCc1ccc(F)cc1 ?
Vaccinia stage: 7; Vaccinia stage Venus: 11

Results for COc1ccc(NC(=O)N2C[C@H](O)COC[C@@H]3O[C@@H](CC(=O)N4CCOCC4)CC[C@H]32)cc1 ?
Vaccinia stage: 2; Vaccinia stage Venus: -6

What do the screens show for `CCCC#Cc1ccc([C@H]2[C@H](CO)N3C(=O)CN(C(=O)c4ccccc4)C[C@@H]23)cc1`?
Vaccinia stage: 7; Vaccinia stage Venus: 4

What do the screens show for `C[C@H](CO)N1C[C@H](C)[C@@H](CN(C)Cc2ccc(C(F)(F)F)cc2)Oc2ccc(NC(=O)CCCCCC(=O)Nc3ccccc3N)cc2CC1=O`?
Vaccinia stage: -11; Vaccinia stage Venus: -6

How did CC(C)NC(=O)Nc1ccc2c(c1)C(=O)N([C@H](C)CO)C[C@H](C)[C@H](CN(C)C(=O)c1ccncc1)OCCCC[C@H](C)O2 do in these assays?
Vaccinia stage: 15; Vaccinia stage Venus: 3

What do the screens show for `COCC(=O)Nc1ccc2c(c1)[C@@H]1C[C@@H](CC(=O)NCC3CC3)O[C@@H](CO)[C@@H]1O2`?
Vaccinia stage: 9; Vaccinia stage Venus: 12

Results for C/C=C/c1ccc([C@H]2[C@@H](CO)N(CC3CCOCC3)C23CN(C(=O)COC)C3)cc1 ?
Vaccinia stage: 3; Vaccinia stage Venus: 7

How did C[C@@H]1CCCCO[C@@H](CN(C)C(=O)Nc2ccc(C(F)(F)F)cc2)[C@H](C)CN([C@@H](C)CO)C(=O)c2cc(NC(=O)Nc3ccc(F)cc3)ccc2O1 do in these assays?
Vaccinia stage: -18; Vaccinia stage Venus: -8

What do the screens show for `O=C(NC1CCCCC1)N[C@@H]1CC[C@H](CCNS(=O)(=O)c2ccccc2)O[C@@H]1CO`?
Vaccinia stage: 0; Vaccinia stage Venus: 12

What do the screens show for `Cc1ccc(S(=O)(=O)Nc2ccc3c(c2)C(=O)N([C@@H](C)CO)C[C@H](C)[C@H](CN(C)C(=O)CCCN(C)C)OCCCC[C@H](C)O3)cc1`?
Vaccinia stage: 2; Vaccinia stage Venus: -5

How did N#C[C@H]1[C@H](c2ccc(-c3cccnc3)cc2)[C@H](CO)N1C(=O)Nc1ccc(F)cc1 do in these assays?
Vaccinia stage: -18; Vaccinia stage Venus: -15

Results for O=C(C[C@@H]1CC[C@@H](NC(=O)Nc2cc(F)ccc2F)[C@@H](CO)O1)NCc1ccc2c(c1)OCO2 ?
Vaccinia stage: -12; Vaccinia stage Venus: -5

What do the screens show for `C[C@@H]1CN([C@H](C)CO)C(=O)c2cc(N(C)C)ccc2O[C@H]1CN(C)C(=O)Nc1cccc2ccccc12`?
Vaccinia stage: 11; Vaccinia stage Venus: -2

How did CCC(=O)N[C@@H]1C=C[C@H](CC(=O)NCc2cc(F)cc(F)c2)O[C@H]1CO do in these assays?
Vaccinia stage: 5; Vaccinia stage Venus: -3

What do the screens show for `COCC#Cc1cnc2c(c1)C(=O)N([C@@H](C)CO)C[C@@H](C)[C@@H](CN(C)C(=O)c1cccc(F)c1)O2`?
Vaccinia stage: 7; Vaccinia stage Venus: 19

How did O=C(C1CCCCC1)N1CC2(C1)[C@@H](c1ccccc1)[C@@H](CO)N2C(=O)NC1CCCC1 do in these assays?
Vaccinia stage: -11; Vaccinia stage Venus: -1

How did COC(=O)C[C@@H]1C[C@H]2c3cc(NC(=O)c4ccc5c(c4)OCO5)ccc3O[C@H]2[C@H](CO)O1 do in these assays?
Vaccinia stage: -18; Vaccinia stage Venus: -14

How did Cc1ccc(S(=O)(=O)Nc2ccc3c(c2)C(=O)N([C@H](C)CO)C[C@H](C)[C@H](CN(C)Cc2ccccc2)O3)cc1 do in these assays?
Vaccinia stage: 15; Vaccinia stage Venus: 1

How did C[C@H]1CN([C@@H](C)CO)S(=O)(=O)c2ccc(-c3cccnc3)cc2O[C@H]1CN(C)C(=O)NC1CCCCC1 do in these assays?
Vaccinia stage: 12; Vaccinia stage Venus: 2

What do the screens show for `COCC#Cc1ccc([C@@H]2[C@H]3CN(C(=O)C4CCOCC4)CC(=O)N3[C@H]2CO)cc1`?
Vaccinia stage: 1; Vaccinia stage Venus: -1

Ordered by number of heavy atoms (rising): some entries from above.
Results for COc1ccc(NC(=O)N2C[C@H](O)COC[C@@H]3O[C@@H](CC(=O)N4CCOCC4)CC[C@H]32)cc1 ?
Vaccinia stage: 2; Vaccinia stage Venus: -6

How did C[C@H]1CN([C@@H](C)CO)S(=O)(=O)c2ccc(-c3cccnc3)cc2O[C@H]1CN(C)C(=O)NC1CCCCC1 do in these assays?
Vaccinia stage: 12; Vaccinia stage Venus: 2

How did CC(C)NC(=O)Nc1ccc2c(c1)C(=O)N([C@H](C)CO)C[C@H](C)[C@H](CN(C)C(=O)c1ccncc1)OCCCC[C@H](C)O2 do in these assays?
Vaccinia stage: 15; Vaccinia stage Venus: 3

How did C[C@@H]1CCCCO[C@@H](CN(C)C(=O)Nc2ccc(C(F)(F)F)cc2)[C@H](C)CN([C@@H](C)CO)C(=O)c2cc(NC(=O)Nc3ccc(F)cc3)ccc2O1 do in these assays?
Vaccinia stage: -18; Vaccinia stage Venus: -8

(listing goes on)
What do the screens show for `O=C(C[C@@H]1C=C[C@@H](NC(=O)Cc2ccccn2)[C@H](CO)O1)NCCCN1CCOCC1`?
Vaccinia stage: 4; Vaccinia stage Venus: 6

How did C[C@@H]1CN([C@H](C)CO)C(=O)CCCn2nncc2CO[C@H]1CN(C)S(=O)(=O)c1ccc(F)cc1 do in these assays?
Vaccinia stage: 16; Vaccinia stage Venus: 26

Results for CO[C@@H](CN(C)S(=O)(=O)c1ccc(C)cc1)[C@H](C)CN(C(=O)Nc1ccccc1F)[C@@H](C)CO ?
Vaccinia stage: -3; Vaccinia stage Venus: -2

What do the screens show for `COc1ccc(NC(=O)N(C)C[C@H]2OCCCC[C@H](C)Oc3ccc(NC(=O)CCC(F)(F)F)cc3C(=O)N([C@H](C)CO)C[C@@H]2C)cc1`?
Vaccinia stage: 0; Vaccinia stage Venus: -2

What do the screens show for `CO[C@@H]1CN(C)C(=O)c2cc(NC(=O)Nc3ccccc3)ccc2OC[C@@H](C)N(CC2CC2)C[C@H]1C`?
Vaccinia stage: -19; Vaccinia stage Venus: -16

What do the screens show for `COc1ccc(NC(=O)Nc2ccc3c(c2)CC(=O)N([C@@H](C)CO)C[C@@H](C)[C@@H](CN(C)C(=O)Nc2ccc4c(c2)OCO4)O3)cc1`?
Vaccinia stage: 20; Vaccinia stage Venus: 14

How did C[C@H](CO)N1C[C@H](C)[C@@H](CN(C)S(=O)(=O)c2ccc(C#N)cc2)OCc2cn(nn2)CCCC1=O do in these assays?
Vaccinia stage: 17; Vaccinia stage Venus: 10

How did O=C(N[C@H]1CC[C@@H](CC(=O)N2CCCCC2)O[C@@H]1CO)c1cccc(F)c1 do in these assays?
Vaccinia stage: 2; Vaccinia stage Venus: -1

How did CN(C)CC(=O)N[C@@H]1CC[C@@H](CCNC(=O)C2CC2)O[C@@H]1CO do in these assays?
Vaccinia stage: 19; Vaccinia stage Venus: 12

What do the screens show for `C[C@H](CO)N1C[C@H](C)[C@H](CN(C)C(=O)CN(C)C)Oc2cc(C3=CCCCC3)ccc2S1(=O)=O`?
Vaccinia stage: -23; Vaccinia stage Venus: -16

Results for O=C(C1CCC1)N1CC(=O)N2[C@H](CO)[C@@H](c3ccc(-c4ccccc4F)cc3)[C@@H]2C1 ?
Vaccinia stage: inconclusive

Results for CCCNC(=O)Nc1ccc2c(c1)OC[C@H](C)N(Cc1ccccc1)C[C@@H](C)[C@@H](OC)CN(C)C2=O ?
Vaccinia stage: -20; Vaccinia stage Venus: -15

Results for CN(C)C(=O)c1ccc(-c2ccc3c(c2)[C@H]2[C@H](CCN2C(=O)C2CCCC2)[C@@H](CO)N3C)cc1 ?
Vaccinia stage: inconclusive

What do the screens show for `C[C@H](CO)N1C[C@H](C)[C@@H](CN(C)Cc2ccccc2C(=O)O)Oc2ncc(C3=CCCCC3)cc2C1=O`?
Vaccinia stage: 4; Vaccinia stage Venus: -2

How did C[C@H](CO)N1C[C@H](C)[C@H](CN(C)CC2CC2)OCc2cn(nn2)CCCC1=O do in these assays?
Vaccinia stage: 2; Vaccinia stage Venus: 4

How did N#C[C@H]1[C@@H](c2ccccc2)[C@H](CO)N1C(=O)c1cc(Cl)cc(Cl)c1 do in these assays?
Vaccinia stage: 5; Vaccinia stage Venus: -4

How did COCC(=O)N1CC(=O)N2[C@H](CO)[C@H](c3ccc(C#CC4CCCC4)cc3)[C@@H]2C1 do in these assays?
Vaccinia stage: -3; Vaccinia stage Venus: -6

Results for CNC(=O)C[C@@H]1CC[C@H]2[C@@H](COC[C@H](O)CN2C(=O)c2ccc3c(c2)OCO3)O1 ?
Vaccinia stage: 13; Vaccinia stage Venus: 11

How did C[C@H](CO)N1C[C@H](C)[C@H](CN(C)S(=O)(=O)c2ccc(F)cc2)OCc2cnnn2CCCC1=O do in these assays?
Vaccinia stage: 18&11; Vaccinia stage Venus: 23&9

How did C[C@H]1CN([C@@H](C)CO)C(=O)c2cc(NS(C)(=O)=O)ccc2O[C@H]1CN(C)Cc1ccc2c(c1)OCO2 do in these assays?
Vaccinia stage: 2; Vaccinia stage Venus: -5
